ALR inh = blocks human ALR sulfhydryl oxidase activity. actives 3.8% (n = 290,000). inhibition, % (concentration not given with the values). purified ALR, DTT oxidation, H2O2 HRP-luminol luminescence. P55789;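 active means mean and each replicate at 75% or more; inconclusive means only one of the two met; inactive means neither met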;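 further: stock transfer was 7.5 nL into about 7.5 µL; 0% = neutral wells and 100% = wells with inactivated enzyme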
Target sequence (P55789 whole entry, looked up): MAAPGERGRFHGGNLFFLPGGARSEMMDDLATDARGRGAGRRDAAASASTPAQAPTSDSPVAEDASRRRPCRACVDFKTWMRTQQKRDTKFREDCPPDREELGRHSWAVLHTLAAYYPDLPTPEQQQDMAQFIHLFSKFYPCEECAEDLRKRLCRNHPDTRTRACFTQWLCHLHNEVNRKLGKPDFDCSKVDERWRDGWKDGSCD
HNF4A DNA FP = change in binding of human HNF4 alpha to DNA; HNF4a-FITC DNA binding, fluorescence polarization, 1 h; AID 1224865; actives 0.3% (n = 360,000); P41235; activity change, % at 10 µM; in the data active means activity change above about 30%, passing the limit was not always enough;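 further: controls were the assay level and a saturating level of protein; the project sought stronger binding though the title names inhibitors; some compounds called inactive have numbers as strong as hits; positive values seem to mean higher polarization but the record does not say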
rRNA inh HTS = selective bacterial rRNA inhibition in E. coli | E. coli WT GFP vs humanized-ribosome RFP mutants, fluorescence, 24 h; hits give low values; DMSO median 0, no signal -100 | GFP signal change (wild-type ribosome), % (no concentration beside the values) | actives 1.6% (n = 350,000);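 active means significant combined selectivity score with lowered wild-type GFP, culture density cut under 30%, mutant RFP and density less affected; inactive means any of these conditions unmet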; further: one replicate is shown; some compounds called inactive have numbers as strong as hits
MLL AF4-AF9 inh = MLL-AF4/AF9 protein interaction inhibition. P42568. AlphaScreen, biotin-AF4 peptide binding to FLAG-AF9. inhibition, % at 10 µM. actives 0.47% (n = 350,000). AID 651704;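 active means every replicate reaching a set inhibition limit, whatever the replicate mean, cut at about 25% in these data; inconclusive means mean inhibition reaches that limit but some replicates miss it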;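 further: 0% = plate neutral control median and 100% = total signal loss; the record names both 10 and 1 µM as test concentration; the first replicate is given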
Target sequence (P42568 whole entry, looked up): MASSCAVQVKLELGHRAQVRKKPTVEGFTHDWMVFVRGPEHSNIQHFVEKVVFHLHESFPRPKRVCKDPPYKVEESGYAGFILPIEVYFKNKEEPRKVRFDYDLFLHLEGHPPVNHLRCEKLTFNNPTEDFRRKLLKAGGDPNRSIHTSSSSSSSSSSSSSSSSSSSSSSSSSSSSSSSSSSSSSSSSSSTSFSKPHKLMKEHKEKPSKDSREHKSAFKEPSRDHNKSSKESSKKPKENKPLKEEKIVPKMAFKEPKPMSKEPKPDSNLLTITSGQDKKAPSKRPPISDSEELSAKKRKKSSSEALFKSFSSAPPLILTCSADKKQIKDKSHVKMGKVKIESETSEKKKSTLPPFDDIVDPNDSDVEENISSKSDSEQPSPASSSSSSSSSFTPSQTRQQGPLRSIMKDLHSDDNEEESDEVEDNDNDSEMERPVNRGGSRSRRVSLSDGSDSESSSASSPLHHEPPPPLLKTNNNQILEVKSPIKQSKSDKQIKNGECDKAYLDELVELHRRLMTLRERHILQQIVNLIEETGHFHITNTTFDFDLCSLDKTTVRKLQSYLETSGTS
E coli growth = blocks Escherichia coli growth | OD600, 23 h; hits give low values | OD600 absorbance (test concentration not listed) | actives 0.21% (n = 330,000);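 active means OD600 absorbance below the run mean of sample wells minus 3.6 SD, in any replicate, cut at about 0.56 in these data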;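 further: stock transfer was 300 nL into about 60 µL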
FGF22 binding = shifts melting point of recombinant human FGF22. recombinant FGF22 thermal shift, SYPRO orange fluorescence; percent of sucrose octasulfate shift, DMSO zero. calls only at 9.99 µM. actives 1.5% (n = 340,000);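 active means melting point raised past a set limit in the mean and every replicate; inconclusive means no clear call; three in four hits are not shown here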
Target sequence (Q9HCT0 whole entry, looked up): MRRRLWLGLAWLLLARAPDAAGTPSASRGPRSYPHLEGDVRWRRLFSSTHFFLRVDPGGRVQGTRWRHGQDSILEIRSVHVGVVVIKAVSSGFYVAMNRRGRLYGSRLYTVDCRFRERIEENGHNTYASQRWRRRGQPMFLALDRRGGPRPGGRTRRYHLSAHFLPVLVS
Vif A3G = inhibitors of Vif binding to APOBEC3G peptide, primary screen, biochemical, TR-FRET, GST-Vif 1-94, biotin-A3G peptide, dose response retest (AID 1117319); actives 0.57% (n = 260,000); inhibition, %, or IC50 in µM where a hit was titrated; TR-FRET GST-Vif / biotin-A3G peptide binding; higher % means a stronger effect; test concentration not given here; strong numbers were not always called active;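 active means above the screen mean plus three standard deviations and confirmed in dose response; inconclusive means results disagree or hit not tested in dose response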;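 further: Vif residues 1-94 fused to GST binding biotinylated APOBEC3G peptide 110-148; 0% = full assay without inhibitor and 100% = GST in place of GST-Vif; retest series ran down from 100 µM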
rRNA inh HTS OD600 = second read-out of rRNA inh HTS, no call of its own (marks repeat the call); OD600 change, %; measured here: OD600 growth;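 optical density of the mix in the first replicate; 0 = DMSO median and -100 = no signal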
rRNA inh HTS RFP = also measured in rRNA inh HTS; calls as there; RFP signal change, %; measured here: RFP humanized mutant strains;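 first replicate; 0 = DMSO median and -100 = no signal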
Numbers without * were called inactive; i = inactive; ? = inconclusive; . = not tested or not shown; & = joins results of further samples. The list is partial. The share of hits here may be higher or lower than overall.

ALR inh,HNF4A DNA FP,rRNA inh HTS,rRNA inh HTS OD600,rRNA inh HTS RFP,MLL AF4-AF9 inh,E coli growth,FGF22 binding,Vif A3G,mol
-2,-2.7,-2,-5,0.3,0.8,0.71,i,15%,Cc1ncc(CN2CCC(C(=O)Nc3cccc(-c4cscn4)c3)CC2)cn1
3,-2.3,.,.,.,.,0.72,.,-6%,CCOC(=O)C1CCN(C(=O)CNS(=O)(=O)c2ccc(Br)s2)CC1
-4,-1.6,6,2,-1.4,1.4,0.66,i,-4%,Nc1nc(NCC(=O)O)nc(NCc2ccccc2)c1[N+](=O)[O-]
.,-2.4,-1,0,1.7,1.0,.,i,12%,Cc1ccccc1N1CCN(c2ccccc2NC(=O)/C=C\C(=O)O)CC1
-4,-0.7,2,-7,-3.9,?,0.66,.,4%,COc1ccc(OC)c(CN2CCCC(CO)C2)c1 (centres undefined)
-11,-1.9,6,13,0.2,-0.4,0.74,i,2%,CCCCn1c(N)c(N(CC)C(=O)c2ccco2)c(=O)[nH]c1=O
-6,2.4,-2,-4,1.9,2.4,0.73,i,10%,Cc1ccc(C)c(NC(=O)c2cccc(Oc3ccc([N+](=O)[O-])cc3Cl)c2)c1
99*,1.0,0,0,0.4,-4.3,0.75,i,5%,Nc1nnc(N2CCc3ccccc32)s1
-4,1.1,.,.,.,.,0.7,.,5%,CC(C)N1CC2(c3ccccc3)CN(C(C)C)CC(c3ccccc3)(C1)C2=O
-11,0.7,.,.,.,.,0.73,.,11%,c1cnc2c(OCc3cn4cccnc4n3)cccc2c1
-4,1.8,9,4,1.0,-52,0.69,i,6%,O=C(CN1CCC(C(O)(c2ccccc2)c2ccccc2)CC1)Nc1cc(Cl)ccc1Cl
-7,4.9,.,.,.,.,0.66,.,5%,O=C(CN1C(=O)C2C3C=CC(C3)C2C1=O)Nc1nc(SCc2ccc(Cl)cc2)n[nH]1 (centres undefined)
16,-3.0,.,.,.,.,0.75,.,6%,COc1ccc(N2CCN(C(=O)c3ccc(NS(=O)(=O)c4ccc(F)cc4)cc3)CC2)cc1
.,.,-14,-46,29,4.5,.,i,.,C[C@@H]1CN([C@@H](C)CO)S(=O)(=O)c2ccc(C#CC3CC3)cc2O[C@@H]1CN(C)Cc1ccccc1
-4,-1.4,.,.,.,.,0.7,.,?,Cc1cc(Nc2ccccc2)nc(-c2ccccc2O)n1
-2,-0.7,.,.,.,.,0.72,.,19%,O=S(NC1CCCCC1)C12CC3CC(CC(C3)C1)C2 (centres undefined)
.,.,-4,-5,2.1,-1.1,.,i,.,C/C=C/c1ccc2c(c1)O[C@H](CN(C)C(=O)NCCC)[C@H](C)CN([C@@H](C)CO)S2(=O)=O
1,3.2,.,.,.,.,0.7,.,-2%,O=C(c1cnn2c(C(F)F)cc(-c3ccccc3)nc12)N1CCSCC1
.,.,0,-1,0.2,-1.8,.,i,.,CO[C@@H]1CN(C)C(=O)c2ccc(NS(=O)(=O)c3ccccc3)cc2OC[C@H](C)N(C)C[C@H]1C
0,-1.5,8,8,9.3,-8.0,0.66,.,4%,CCN1CCN(S(=O)(=O)c2cccc3nsnc23)CC1
.,.,1,-2,1.7,-4.7&-13,.,i,.,C[C@H](CO)N1C[C@H](C)[C@H](CN(C)C(=O)NC2CCCC2)Oc2ncc(-c3ccccc3)cc2C1=O
.,2.3,.,.,.,.,0.67,.,4%,Cc1nn(Cc2ccccc2)c(Cl)c1C(=O)OCc1nnc(-c2ccccc2)o1
-14,0.8,2,-6,2.4,.,0.64,.,9%,CCC(=O)Nc1cc(Cl)ccc1C(=O)O
6,1.4,.,.,.,.,0.77,.,2%,Cc1c(Cl)c([N+](=O)[O-])nn1CC(=O)NC12CC3CC(CC(C3)C1)C2
-13,-1.4,4,6,-2.7,1.3,0.68,i,-4%,COCCCNC(=O)/C=C/c1ccc(Cl)cc1
.,-2.0,16,8,5.0,.,0.65,i,-18%,Cc1cc(C)c2c(N)c(C(=O)c3ccccc3)sc2n1
-7,-1.6,.,.,.,.,0.72,.,-4%,CCCCn1c(SCc2nc(N)nc(N3CCCCC3)n2)nc2c1c(=O)n(C)c(=O)n2C
-3,-3.6,.,.,.,-1.1,0.67,i,.,O=C(Nc1ccc(S(=O)(=O)Nc2nccs2)cc1)c1c(F)c(F)c(F)c(F)c1F
52,-3.0,.,.,.,.,0.71,.,.,COc1ccc(C(CCN(Cc2ccc(OC)c(OC)c2)C(=O)CCl)c2ccccc2)cc1 (centres undefined)
-7,1.0,.,.,.,.,0.71,.,3%,CN1CCN(C(=O)CN(Cc2ccccc2)S(C)(=O)=O)CC1

Looked up one by one from above (two):
ALR inh,HNF4A DNA FP,rRNA inh HTS,rRNA inh HTS OD600,rRNA inh HTS RFP,MLL AF4-AF9 inh,E coli growth,FGF22 binding,Vif A3G,mol
-14,0.8,2,-6,2.4,.,0.64,.,9%,CCC(=O)Nc1cc(Cl)ccc1C(=O)O
.,.,1,-2,1.7,-4.7&-13,.,i,.,C[C@H](CO)N1C[C@H](C)[C@H](CN(C)C(=O)NC2CCCC2)Oc2ncc(-c3ccccc3)cc2C1=O

Back to the main list; the four compounds before the break are reprinted first.
ALR inh,HNF4A DNA FP,rRNA inh HTS,rRNA inh HTS OD600,rRNA inh HTS RFP,MLL AF4-AF9 inh,E coli growth,FGF22 binding,Vif A3G,mol
-7,-1.6,.,.,.,.,0.72,.,-4%,CCCCn1c(SCc2nc(N)nc(N3CCCCC3)n2)nc2c1c(=O)n(C)c(=O)n2C
-3,-3.6,.,.,.,-1.1,0.67,i,.,O=C(Nc1ccc(S(=O)(=O)Nc2nccs2)cc1)c1c(F)c(F)c(F)c(F)c1F
52,-3.0,.,.,.,.,0.71,.,.,COc1ccc(C(CCN(Cc2ccc(OC)c(OC)c2)C(=O)CCl)c2ccccc2)cc1 (centres undefined)
-7,1.0,.,.,.,.,0.71,.,3%,CN1CCN(C(=O)CN(Cc2ccccc2)S(C)(=O)=O)CC1
.,6.0,-4,-4,11,4.8,0.68,i,20%,CC(=O)Nc1ccc(C(=O)/C=C/c2ccc[nH]2)cc1
16,-3.9,.,.,.,.,0.69,.,4%,Cn1c(/C(C#N)=C/C2CC=CCC2)nc2ccccc21 (centres undefined)
.,.,-2,0,-1.2,3.0,.,i,.,O=C(c1cccc(F)c1)N1CCCCN2[C@H](CO)[C@@H](c3ccc(-c4ccncc4)cc3)[C@H]2C1
-2,-1.1,6,10,1.6,-3.1,0.69,i,-7%,CSCC(C)N1CCC(N2CCC(C(=O)NCc3ccccn3)CC2)CC1 (centres undefined)
.,3.5,10&-2,6&-3,-5.6&0.2,1.1&-2.0,.,i,-11%,C[C@@H]1CN([C@H](C)CO)C(=O)CCCn2cc(nn2)CO[C@H]1CN(C)S(=O)(=O)c1ccc2c(c1)OCCCO2
3,3.6,0,3,-1.4,3.2,0.7,i,.,NC(=O)c1nsc(C(=O)N(CC(=O)NCc2ccccc2)c2cccc(F)c2)c1N
.,0.3,4,-10,1.0,0.4,.,.,.,CC(=O)Nc1ccc(C(=O)N2c3ccccc3N=C(c3ccc4c(c3)OCO4)C2C(=O)NCc2ccccc2)cc1 (centres undefined)
15,-3.9,1,-5,2.0,-4.5,0.66,i,.,Cc1ccc(C)c(C(C)NC(=O)Cc2cccs2)c1 (centres undefined)
.,.,-4,-5,1.7,1.3,.,i,.,C[C@@H]1CN([C@H](C)CO)C(=O)c2cc(NC(=O)Nc3ccccc3)ccc2O[C@@H](C)CCCCO[C@@H]1CN(C)C(=O)Cc1ccccc1
3,0.5,.,.,.,.,0.73,.,21%,Nc1nnc(COc2cccc(C(F)(F)F)c2)s1
22,0.9,-8,-3,-1.4,1.3,0.66,i,4%,NNC(=O)c1sc2nc(N3CCOCC3)c3c(c2c1N)CCCC3
-3,-0.7,-21,-27,-3.5,1.1,0.64,i,.,Cc1ccc(C(=O)C2CCN(C(=S)NCCCOC(C)C)CC2)cc1
.,.,2,-7,-4.3,1.2,.,i,.,C[C@H](CO)N1C[C@H](C)[C@H](CN(C)S(=O)(=O)c2ccc(F)cc2)Oc2ccc(NC(=O)NC3CCCCC3)cc2C1=O
-1,4.9,.,.,.,.,0.73,.,-1%,Cn1c(=O)oc2cc(S(=O)(=O)NCCC(=O)NCCc3ccc(Cl)cc3)ccc21
88*,0.2,-9,-14,1.5,0.1,0.7,i,-2%,Cc1ccc(S(=O)(=O)NNC(=O)c2ccc3ccccc3n2)cc1
.,.,-3,-4,6.8,-3.2,.,i,.,COCC#Cc1ccc([C@H]2[C@H]3CN(S(=O)(=O)c4ccc(OC)cc4)CCCCN3[C@H]2CO)cc1
.,-3.5,.,.,.,.,0.72,.,?,O=C(NCc1ccco1)Nc1ccccc1Cl
99*,1.4,-6,-2,2.3,-3.4,0.8,i,2%,c1cn2c(NC3CCCC3)c(-c3ccc(N4CCOCC4)cc3)nc2cn1
.,-1.8,7,23,2.5,-4.2,.,i,.,COCCNC(=O)C1(C)CCCN(C(=O)c2ccc(F)c(Cl)c2)C1 (centres undefined)
-14,-1.8,-21,-31,10,0.4,.,i,.,O=C(C[C@H]1C/C=C\CC[C@@H](Cc2ccc(F)cc2)C(=O)OC[C@H]2CCCN2C1=O)N[C@@H](CO)Cc1ccccc1
-23,2.4,2,9,-0.7,1.0,0.71,i,.,CC1CCCCC12NC(=O)N(CC(=O)Nc1ccc(OC(F)F)cc1)C2=O (centres undefined)
-13,0.5,5,6,3.4,-2.9,0.73,i,-5%,CCN(C(=O)c1ccc(Br)cc1)c1ccccc1
-18,-0.7,18,20,1.0,0.2,0.72,i,-2%,Cc1ccc(OCC(=O)Nc2ccc3c4c(cccc24)CC3)c(C)c1
2,1.6,-2,-13,-0.2,-0.1,0.66,i,.,CC(C)C(c1nnnn1C1CCCCC1)N1CCN(C(=O)c2ccco2)CC1 (centres undefined)
.,-0.5,-14,-14,8.4,-1.5,0.72,i,4%,Cn1cncc1C#Cc1c(-c2ccc(S(C)(=O)=O)cc2)sc2ccccc12
-4,-2.5,0,-9,-3.3,-41,.,i,.,CC1CCN(Cc2c(C(=O)N/N=C/c3ccc(C(C)(C)C)cc3)nnn2-c2nonc2N)CC1
-5,-0.6,6,-3,3.4,-2.3,0.7,i,-48%,NC(=O)c1cc(-c2ccncc2)nc2ccc(Cl)cc12
-8,0.9,.,.,.,.,0.71,.,.,Cc1ccc(CSCC(=O)Nc2c(C)n(C)n(-c3ccccc3)c2=O)cc1
-1,-2.4,6,4,-1.8,-4.0,0.72,i,-14%,CCCn1c(=O)[nH]c(=O)c2c1nc(-c1ccc(OC)c(Br)c1)n2CCOC
-10,-1.3,16,8,-4.8,2.0,0.69,i,17%,CC(=O)C1C(c2ccncc2)NC(=O)NC1(O)C(F)(F)F (centres undefined)
.,.,-3,-6,1.2,0.4,.,i,.,COc1ccc(NC(=O)Nc2ccc3c(c2)CC(=O)N([C@H](C)CO)C[C@H](C)[C@H](CN(C)Cc2ccc(C(=O)Nc4ccccc4N)cc2)O3)cc1
.,.,-3,-5,-1.9,0.1,.,i,.,C[C@@H]1CN([C@H](C)CO)C(=O)c2cc(-c3ccccc3F)cnc2O[C@H]1CN(C)C(=O)C1CCC1
7,0.0,.,.,.,.,0.65,.,2%,COC(=O)C(NC(=O)c1ccccc1)c1ccccc1 (centres undefined)

High-throughput results deposited in PubChem by several laboratories.
